# nsP2pro inh: inhibitors of chikungunya virus nsP2 protease; FRET peptide cleavage, nsP2pro, fluorescence 1 h; 1.1% of 31,000 active; Q8JUX6; Potency, µM (titrated, usually from 24.9 µM), inactives show at the top dose activity change, negative = inhibition, hits mostly inhibitors; active means well fitted inhibition curve with a large enough effect; inconclusive means small, poorly fitted or top-dose-only effect; inactive means no such curve, though single readings can be large or run the other way; also: nearly all actives have a fitted effect of over 60% in size; a reference inhibitor and vehicle were the controls
# Target sequence (Q8JUX6 whole entry, looked up): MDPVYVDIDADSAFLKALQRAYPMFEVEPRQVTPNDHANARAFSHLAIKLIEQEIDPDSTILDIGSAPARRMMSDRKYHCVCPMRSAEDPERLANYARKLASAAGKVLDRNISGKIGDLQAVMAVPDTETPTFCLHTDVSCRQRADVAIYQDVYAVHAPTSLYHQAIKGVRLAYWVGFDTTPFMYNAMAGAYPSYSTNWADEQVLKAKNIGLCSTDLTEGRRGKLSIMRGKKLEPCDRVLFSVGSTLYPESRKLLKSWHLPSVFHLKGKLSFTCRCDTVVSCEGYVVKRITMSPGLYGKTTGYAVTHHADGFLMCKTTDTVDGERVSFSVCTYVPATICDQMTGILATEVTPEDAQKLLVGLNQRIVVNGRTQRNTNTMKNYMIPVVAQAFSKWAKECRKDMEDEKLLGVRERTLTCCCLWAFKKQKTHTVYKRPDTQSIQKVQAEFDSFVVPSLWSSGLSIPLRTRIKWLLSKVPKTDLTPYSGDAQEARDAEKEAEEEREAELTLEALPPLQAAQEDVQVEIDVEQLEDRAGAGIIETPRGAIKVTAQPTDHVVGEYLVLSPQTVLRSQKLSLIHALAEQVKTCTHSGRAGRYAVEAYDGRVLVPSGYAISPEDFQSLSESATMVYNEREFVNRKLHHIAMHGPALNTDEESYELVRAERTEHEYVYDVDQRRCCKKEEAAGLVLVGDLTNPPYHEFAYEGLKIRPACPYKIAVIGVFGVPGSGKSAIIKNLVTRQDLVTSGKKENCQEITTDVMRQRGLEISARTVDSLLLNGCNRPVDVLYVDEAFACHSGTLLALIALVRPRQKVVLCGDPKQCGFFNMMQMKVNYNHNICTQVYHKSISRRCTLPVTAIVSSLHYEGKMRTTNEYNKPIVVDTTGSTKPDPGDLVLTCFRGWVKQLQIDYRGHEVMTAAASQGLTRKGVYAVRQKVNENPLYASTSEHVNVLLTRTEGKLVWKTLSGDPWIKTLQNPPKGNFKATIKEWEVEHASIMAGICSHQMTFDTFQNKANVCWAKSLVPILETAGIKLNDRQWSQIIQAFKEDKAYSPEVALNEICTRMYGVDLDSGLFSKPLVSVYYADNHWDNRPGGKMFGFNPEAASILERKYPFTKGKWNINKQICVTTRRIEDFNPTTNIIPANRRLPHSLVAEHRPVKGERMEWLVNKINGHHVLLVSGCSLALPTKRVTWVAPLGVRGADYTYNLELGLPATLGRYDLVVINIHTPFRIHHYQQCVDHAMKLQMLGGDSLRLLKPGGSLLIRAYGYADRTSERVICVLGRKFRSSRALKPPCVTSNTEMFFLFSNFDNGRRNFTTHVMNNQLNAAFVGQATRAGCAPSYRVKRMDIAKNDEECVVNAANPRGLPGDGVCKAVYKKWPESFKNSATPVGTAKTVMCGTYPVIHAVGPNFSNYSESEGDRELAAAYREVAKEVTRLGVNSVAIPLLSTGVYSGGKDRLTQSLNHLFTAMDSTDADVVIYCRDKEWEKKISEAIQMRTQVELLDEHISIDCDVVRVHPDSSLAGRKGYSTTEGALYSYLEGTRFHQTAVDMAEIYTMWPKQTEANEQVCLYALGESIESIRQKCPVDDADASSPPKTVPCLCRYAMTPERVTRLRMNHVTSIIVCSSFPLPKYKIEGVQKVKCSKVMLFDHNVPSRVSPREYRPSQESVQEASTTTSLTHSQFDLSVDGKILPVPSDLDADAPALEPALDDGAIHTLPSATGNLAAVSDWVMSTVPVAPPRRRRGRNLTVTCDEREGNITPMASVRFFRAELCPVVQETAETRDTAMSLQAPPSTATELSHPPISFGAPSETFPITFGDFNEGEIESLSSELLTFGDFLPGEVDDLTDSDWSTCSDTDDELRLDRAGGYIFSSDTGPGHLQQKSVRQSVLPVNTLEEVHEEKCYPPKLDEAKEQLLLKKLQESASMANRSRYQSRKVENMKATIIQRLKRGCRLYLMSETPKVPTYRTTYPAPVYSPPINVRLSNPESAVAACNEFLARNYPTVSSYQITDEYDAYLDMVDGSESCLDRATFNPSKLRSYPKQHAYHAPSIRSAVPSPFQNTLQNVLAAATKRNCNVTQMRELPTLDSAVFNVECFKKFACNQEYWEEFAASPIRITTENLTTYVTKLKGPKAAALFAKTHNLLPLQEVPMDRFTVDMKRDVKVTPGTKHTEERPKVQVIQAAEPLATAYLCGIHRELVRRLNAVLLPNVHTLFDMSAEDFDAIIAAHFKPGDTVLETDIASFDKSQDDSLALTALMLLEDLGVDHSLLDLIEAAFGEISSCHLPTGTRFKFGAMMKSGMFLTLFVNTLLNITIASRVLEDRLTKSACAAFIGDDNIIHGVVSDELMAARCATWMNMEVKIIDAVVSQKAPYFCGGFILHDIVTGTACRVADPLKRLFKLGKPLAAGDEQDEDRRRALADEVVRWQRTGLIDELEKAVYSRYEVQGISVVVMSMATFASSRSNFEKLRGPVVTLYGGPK
# An asterisk follows results filed as active; i = inactive; ? = inconclusive; [ ] = another dose, or the depositor's remark. % is scaled to controls: 0 for no effect and ±100 for the full control effect; potency is read from the fitted curve at half-maximal effect. An excerpt; count on the stated rates, not on these rows.
no. | Molecule | nsP2pro inh
1 | CC(=O)N[C@@H](CC(C)C)C(=O)O | ?
2 | CC1(C)[C@@H]2CC=C(CO[C@@H]3O[C@H](CO[C@@H]4OC[C@H](O)[C@H](O)[C@H]4O)[C@@H](O)[C@H](O)[C@H]3O)[C@H]1C2 | ?
3 | Cc1ccsc1CN1CCn2c(nnc2[C@@H]2C[C@@H](O)CN2Cc2cccnc2)C1 | 5%
4 | CCn1nccc1C(=O)N1CC[C@@H]2CN(Cc3ccccc3)[C@@H]2C1 | -2%
5 | O=C(Nc1ccc(Cl)c(Cl)c1)Nc1cccc(-c2ccncc2)n1 | 5%
6 | Cc1cccc(CCNC(=O)c2ccc3c(c2)N(Cc2ccccc2F)C(=O)c2ccccc2S3)c1 | -10%
7 | O=C(O)C1(c2ccccc2)CCN(S(=O)(=O)c2cccs2)CC1 | -1%
8 | C=CCN1CCN(C(=O)[C@@]23CCCC[C@H]2N(CCC(C)C)C(=O)CC3)CC1 | -1%
9 | Cc1cccc(NC(=O)c2sc3nc(-c4ccccc4)cn3c2C)c1C | -16%
10 | CCCCN(CCCC)CCNC(=O)c1cc(=O)[nH]c2ccc(S(=O)(=O)N3CCCCCC3)cc12 | -15%
11 | Cc1ccc(S(=O)(=O)Nc2ccc3nc(-c4cccc(Cl)c4)oc3c2)cc1 | -4%
12 | O=C1Nc2ccccc2CN(CC2CCCC2)C12CCNC2 (configuration not stated) | 13µM*
13 | O=C(CC1CC1)NC1CCCc2nc(-c3ccccc3)ncc21 (configuration not stated) | -7%
14 | CN[C@@H](C)C(=O)N1CCC(c2cc(N3CCOCC3)nc(C)n2)CC1 | -5%
15 | CCc1cccc(C)c1Nc1c(-c2ccc(N(C)C)cc2)nc2cnccn12 | -5%
16 | CCNc1ncnc2ccc(-c3ccc4c(c3)OCO4)cc12 | i
17 | COc1ccccc1[C@@H]1C2=C(CC(C)(C)CC2=O)Nc2n[nH]c(C(F)(F)F)c21 | -17%
18 | N#Cc1c(-c2ccc(OCCOCCOCCNC(=O)CCCC[C@@H]3SC[C@@H]4NC(=O)N[C@@H]43)cc2)no[n+]1[O-] | -17%
19 | CCOC(=O)c1cc(-c2ccccc2)n(CCCC(=O)Nc2cccc(C)c2C)c1C | -30%
20 | N#C/C(=C/c1ccc(Cl)cc1Cl)c1nc2ccccc2c(=O)[nH]1 | -8%
21 | NC(=O)c1ccccc1-c1noc(-c2ccccc2F)n1 | 5%
22 | COC1CC(O[C@H]2CC[C@]3(C=O)C4CC[C@]5(C)[C@@H](C6=CC(=O)OC6)CC[C@]5(O)[C@@H]4CC[C@]3(O)C2)OC(C)C1O[C@@H]1O[C@H](CO)[C@@H](O)[C@H](O)[C@H]1O (some centres not stated) | 0%[10 µM]
23 | C/C=C/CN1C[C@@H](NC(=O)c2cccc(N(C)C)c2)C[C@H]1C(=O)NCC | -4%
24 | CCc1c[nH]c2ncnc(N3CC[C@](N)(CNC(=O)c4ccc(F)cc4F)C3)c12 | 24%
25 | CC(C)C(=O)c1c(C(C)C)nn2ccccc12 | ?
26 | CC(=O)Nc1ccc(S(=O)(=O)N2CCCN(S(=O)(=O)c3ccc4c(c3)OCCO4)CC2)cc1 | i
27 | COc1ccc(Cl)cc1NC(=O)CCC1CCCN(C(=O)c2ccnn2C)C1 (configuration not stated) | i
28 | Cc1ccc(C(C)C)c(OCC(=O)Nc2ccc(S(=O)(=O)Nc3onc(C)c3C)cc2)c1 | 32%[activator]
29 | CCN1C[C@]2(COC)[C@H](O)C[C@H](OC)[C@]34[C@@H]5C[C@]6(O)[C@H](OC(=O)c7ccccc7)[C@@H]5[C@@](O)([C@H]([C@H](OC)[C@H]23)[C@@H]14)[C@@H](O)[C@@H]6OC | 5%
30 | CC1(C)CC2=C3C=CC4C5(C)CCC(O)C(C)(C)C5CCC4(C)C3(C)CCC2(C)C(O)C1 (configuration not stated) | 54%[activator][10 µM]
31 | Cc1ccc(C(=O)c2ccc(CC(=O)O)n2C)cc1 | -5%
32 | O=C(NCCN1CCCCC1)[C@H]1C[C@@H](O)[C@H](O)[C@@H]2N=C(Nc3ccc4c(c3)OCO4)S[C@@H]21 | i
33 | OC[C@@]1(O)CO[C@H](OC[C@H]2O[C@@H](OC(CCCCc3ccc(O)cc3)CCc3ccc(O)cc3)[C@H](O)[C@@H](O)[C@@H]2O)[C@@H]1O (some centres not stated) | -19%[10 µM]
34 | Cc1cc(C)c(S(=O)(=O)NCCc2cc3ccc(C)c(C)c3[nH]c2=O)c(C)c1 | -16%
35 | CN(C)C[C@@H]1CN(c2ncccn2)C[C@H]1NC(=O)COc1ccc(Cl)cc1 | i
36 | CCN1CCN(C(=O)N[C@@H](C(=O)N[C@]2(OC)C(=O)N3C(C(=O)O)=C(CSc4nnnn4C)CS[C@@H]32)[C@H](C)O)C(=O)C1=O | -26%
37 | CCn1c(=O)c2cc(C(=O)NC3CCC(C)CC3)sc2c2ccccc21 (configuration not stated) | -21%
38 | COCCN1CC2(CCOC2)N(C2CCN(C(=O)c3ccc(OC)cc3)CC2)C1=O (configuration not stated) | i
39 | Cc1nc(CNc2ncnc3ccc(-c4oc(-c5ccccc5)nc4C)cc23)cs1 | i
40 | CCOc1ccc(Nc2oc(/C=C/c3cccc(OC)c3)nc2C#N)cc1 | -28%
41 | Cc1ccc(CC(=O)Nc2ccc3c(c2)N(C)C(=O)c2ccccc2S3)cc1 | ?
42 | O=C(NC1C[C@H]2CC[C@@H](C1)N2S(=O)(=O)c1cccs1)c1ccncc1 (some centres not stated) | 1%
43 | O=C(NC1CCNCC1)[C@@H]1CC[C@@H]2CN1C(=O)N2OS(=O)(=O)O | -2%
44 | CC(=O)N1CCN(c2ccc(OCC3COC(Cn4ccnc4)(c4ccc(Cl)cc4Cl)O3)cc2)CC1 (configuration not stated) | 22%
45 | COc1cc(CN2CCN(c3ccc(C#N)cn3)CC2CCO)cc(OC)c1 (configuration not stated) | ?
46 | CCOC(=O)c1nc(NCc2ccccc2)sc1C | -1%
47 | CCCS(=O)(=O)N1C[C@@H]2C[C@H](C1)c1c(-c3ccc(Cl)cc3)ccc(=O)n1C2 | ?
48 | CCC(C)C(=O)OC12C(OC(C)=O)C(C)C3(O)C(C=C(CO)CC4(O)C(=O)C(C)=CC43)C1C2(C)C (configuration not stated) | -8%[10 µM]
49 | O=C(O)c1ccccc1-c1noc(-c2ccccc2F)n1 | 2%
50 | CN(CC1CCOC1)C(=O)Cc1ccccc1 (configuration not stated) | i
51 | OCCCNc1cc(-c2ccnc(Nc3cccc(Cl)c3)n2)ccn1 | 57%
52 | COc1ccccc1C(=O)N1CCCCCC1CN1CCc2ccccc2C1 (configuration not stated) | ?
53 | CCOC(=O)c1ccc(NC(=O)c2csc3c2CCCCC3)cc1 | -14%
54 | CC1=C(C(=O)Nc2ccc(C)cc2C)C(c2ccccc2)n2nc(SCC(=O)c3ccc(C)cc3)nc2N1 (configuration not stated) | -16%
55 | CC(C)(C)CCN1C[C@@H]2C(CNC(=O)c3cc(Cl)cc(Cl)c3)[C@@H]2C1 (some centres not stated) | -16%
56 | O=C(NCc1csc(-c2cnccn2)n1)C1NCCc2[nH]cnc21 (configuration not stated) | i
57 | Cc1nn2c(=O)cc(COC(=O)C(c3ccccc3)c3ccccc3)nc2s1 | -17%
58 | Cc1ccc(NS(=O)(=O)c2ccc3c(c2)CC(=O)N3)cc1C | -3%
59 | COc1cccc(O)c1CNc1ccc(S(=O)(=O)Nc2nccs2)cc1 | -18%
60 | OCC(O)C(O)C(O)CO (configuration not stated) | -10%

# Next entries follow.
no. | Molecule | nsP2pro inh
61 | CC1=C2C[C@H]3OC(=O)[C@H](O)[C@@]4(O)[C@@H](C)[C@@H](O)[C@H](O)C([C@@]2(C)[C@H](O)[C@@H](O)C1)[C@@]34C (some centres not stated) | -6%
62 | CSc1ccc(-c2nc(CN(C)Cc3cc(C)no3)c(C)o2)cc1 | -1%
63 | Cc1ccccc1Cn1nnc2c(=O)[nH]c(C3CCN(C(=O)c4ccc(F)cc4)CC3)nc21 | -20%
64 | CCc1ccc(-n2c(Cc3ccccc3)nnc2SCc2nc(-c3cccs3)no2)cc1 | -18%
65 | CCNC(=O)NC1(CCOC)CCN(C(=O)c2ccoc2)CC1 | -11%
66 | CCOc1cccc(CC(=O)Nc2ccc3nc(N4CCCCC4)cc(C)c3c2)c1OCC | -2%
67 | CC1CCC2(C(=O)O)CCC3(C)C(=CCC4C5(C)C[C@@H](O)[C@@H](O)C(C)(CO)C5CCC43C)C2C1(C)O (some centres not stated) | 0%[10 µM]
68 | Cc1nnc2n1CCC(N(C)C(=O)NCCc1ccccc1)CC2 (configuration not stated) | -1%
69 | C=C[C@@]1(C)CCC2C(=CCC3[C@]2(C)CCC[C@@]3(C)C(=O)O)C1 (some centres not stated) | 54%[activator]
70 | Cc1cccc(-c2nnc(C)n2CCCn2ccnc2)c1[N+](=O)[O-] | i
71 | O=C(c1ccncc1)N1CCC(Nc2cccnc2)C1 (configuration not stated) | ?
72 | CCN(CC)CCn1c(-c2ccccc2)nc2c(NCCOC)nc(C)nc21 | -1%
73 | CC1=C(C(=O)OCC(C)C)C(c2ccc(OCc3ccccc3)cc2)N2C(=O)CCSC2=N1 (configuration not stated) | -20%
74 | CCC(CC)C(=O)Nc1nnc(S(=O)(=O)N2CCc3ccccc32)s1 | -24%
75 | O=C(C[C@@H]1O[C@H](CNC(=O)Nc2ccccc2)[C@@H](O)[C@H]1O)NC1CC1 | 0%[39.2 µM]
76 | COc1ccccc1N1C(=O)c2ccccc2C1=O | i
77 | Cc1cc(C)c(S(=O)(=O)NCc2csc(-c3ccccc3)n2)c(C)c1 | 1%
78 | CCc1ccc(C(=O)N2CCC([C@@H]3CNC[C@H]3CO)CC2)cc1 | i
79 | CC(=O)N1Cc2ccccc2CC2(CCCN2Cc2ccccn2)C1 (configuration not stated) | -25%
80 | COc1ccc(NCc2cccn2-c2nnc(N3CCC(C)CC3)s2)c(OC)c1 | -25%
81 | CN(C)c1ccc(C(=O)N[C@H]2CC(C)(C)[C@@H]3C[C@@](C)(O)CC[C@]23CCC(=O)NC2CC2)cc1 | i
82 | Cc1cnc(CC2CCN(S(=O)(=O)c3cn(C)cn3)C2)n1Cc1ccccc1 (configuration not stated) | 3%
83 | CC(=O)N1CCN(S(=O)(=O)c2ccc3c(c2)CC(=O)N3)CC1 | i
84 | COc1ccc(-c2nc(C3CC3)nc3c2CCN(CCC(C)C)CC3)cc1 | i

# Next part; it opens with the 5 that closed the last part.
no. | Molecule | nsP2pro inh
80 | COc1ccc(NCc2cccn2-c2nnc(N3CCC(C)CC3)s2)c(OC)c1 | -25%
81 | CN(C)c1ccc(C(=O)N[C@H]2CC(C)(C)[C@@H]3C[C@@](C)(O)CC[C@]23CCC(=O)NC2CC2)cc1 | i
82 | Cc1cnc(CC2CCN(S(=O)(=O)c3cn(C)cn3)C2)n1Cc1ccccc1 (configuration not stated) | 3%
83 | CC(=O)N1CCN(S(=O)(=O)c2ccc3c(c2)CC(=O)N3)CC1 | i
84 | COc1ccc(-c2nc(C3CC3)nc3c2CCN(CCC(C)C)CC3)cc1 | i
85 | Cc1ccc(-c2nnc(N3CCC(C(N)=O)CC3)s2)cc1 | 0%
86 | Nn1nnc2ccccc21 | ?
87 | CC(c1ccc(-c2cc(N)ncn2)cc1)N1CCCCC1 (configuration not stated) | -1%
88 | O=C(Nc1cncc(O)c1)c1cccs1 | i
89 | CCOC(=O)Cn1c(=O)n(C2CCCCC2)c2nc(-c3c(F)cccc3Cl)nc(C(N)=O)c21 | -7%
90 | Fc1ccc(-n2ncc3c(NCCCc4ccccc4)ncnc32)cc1 | -13%
91 | CCCNC(=O)O[C@@H]1CC[C@]2(C)[C@H](CC[C@@H](O)[C@H]2CC(=O)N2CCCC2)[C@]1(C)CO | -2%[39.2 µM]
92 | CC(=O)O[C@@H]1[C@@H](CO)O[C@@](CO)(O[C@H]2O[C@H](COC(=O)/C=C/c3ccccc3)[C@@H](O)[C@H](O)[C@H]2O)[C@H]1O | 55%[activator][10 µM]
93 | Cc1ccc(CNc2ncnc3ccc(-c4ccc5c(c4)OCO5)cc23)s1 | 3%
94 | Cc1cc(C(=O)N2CCCC3(C2)Nc2cccnc2NC3=NCc2ccccc2)nn1C (configuration not stated) | -5%
95 | Cc1c(C(=O)N2CCC(C)CC2)c(S(=O)(=O)NCc2ccc(Cl)cc2)c(C)n1C | -13%
96 | O=C(c1cc(F)ccc1F)N1CCCCC1c1nc(-c2cnccn2)n[nH]1 (configuration not stated) | i
97 | CCS(=O)(=O)c1nc2ccccc2n1CC(=O)Nc1ccccc1C(=O)OC | -11%
98 | COc1ccccc1CN(C)C1CCc2ccccc21 (configuration not stated) | 4%[39.2 µM]
99 | COc1ccc(NC(=O)CN2C(=O)COc3ccc(S(=O)(=O)N4CCCCC4)cc32)cc1OC | -15%
100 | COc1ccc(-c2noc(-c3ccc(N4CCN(C)CC4)c([N+](=O)[O-])c3)n2)cc1 | 1%
101 | O=S(=O)(c1ccc2c(c1)OCCO2)N1CCN(S(=O)(=O)c2c(F)cccc2F)CC1 | -6%
102 | Cc1nn(C(C)C(=O)NC2CCC(C)CC2)c(=O)c2cc3sccc3n12 (configuration not stated) | -18%
103 | O=[N+]([O-])c1cc([As](=O)(O)O)ccc1O | 6%
104 | O=C(CCc1nnn2c1CN(C(=O)NCc1ccccc1)CC2)N1CCCC1 | 0%
105 | COc1ccc2nc([C@H]3CCN(C4CCCCC4)C3)[nH]c2c1 | i
106 | CCOc1ccc(C(=O)Nc2nc(-c3ccc(Br)cc3)ns2)cc1 | ?
107 | Cc1ccc(C[C@@H](NS(=O)(=O)c2ccc(C(=O)O)cc2)C(=O)O)cc1 | i
108 | COc1ccc(NS(=O)(=O)c2ccc3[nH]c4c(c3c2)CCCC4)cc1OC | -16%
109 | CC(=O)Nc1sc2c(c1-c1cc3ccccc3o1)CCNC2 | i
110 | O=C(CCS(=O)(=O)c1nc(-c2ccc3c(c2)OCO3)cc(C(F)(F)F)n1)Nc1ccc(Br)cc1 | 5%

# Shown field by field: entries from further up.
106) CCOc1ccc(C(=O)Nc2nc(-c3ccc(Br)cc3)ns2)cc1
  nsP2pro inh: ?

97) CCS(=O)(=O)c1nc2ccccc2n1CC(=O)Nc1ccccc1C(=O)OC
  nsP2pro inh: -11%

105) COc1ccc2nc([C@H]3CCN(C4CCCCC4)C3)[nH]c2c1
  nsP2pro inh: i
